# Source: PubChem BioAssay
# T cruzi inh – blocks replication of Trypanosoma cruzi. T. cruzi beta-gal in NIH3T3, luminescence, 90 h. inhibition, % (no concentration beside the values). actives 1.4% (n = 300,000). AID 1885;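 active = mean inhibition across valid replicates above about 55%, limit read from the data; inconclusive = mean below that limit but half or more replicates reach it; inactive = mean below it, under half of replicates reach it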;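 also: signal also drops with host cell toxicity which is not excluded here; 0% = plate median of DMSO wells and 100% = zero luminescence signal; higher percent means less beta-gal luminescence so fewer parasites; stock transfer was 50 nL into about 50 µL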
# RanGTP-Impb inh – disruptors of Ran-importin-beta complex formation – biochemical, FRET, CFP-Ran, YFP-importin-beta, homogeneous, primary screen | cell-free CFP-Ran/YFP-importin-beta FRET ratio | inhibition, % (no concentration beside the values) | actives 1.1% (n = 300,000) | AID 2216;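 active = most replicates above 15%; inconclusive = exactly half above 15%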;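 also: 0% = DMSO wells and 100% = Ran loaded with GDP instead of GTP; wells of about 40 µL received 100 nL stock; the first replicate is given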
# Beta cell apopt – beta cell apoptosis inhibition. INS-1E cytokine-induced death, ATP luminescence, 48 h; percent of positive-control rescue, neutral wells zero. actives 0.8% (n = 300,000). protection from apoptosis, % (concentration not given with the values). AID 435005;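 active = all replicates at 75% or more, or half of them and the mean; inconclusive = half reach 75% but not the mean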;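 also: 0% = cytokine-treated negative control wells and 100% = positive control rescue; higher means more ATP so stronger rescue from cytokine killing; wells of about 40 µL received 100 nL stock; the first replicate is given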
# Bfl-1 A1 inh – inhibitors of the anti-apoptotic protein A1, read as caspase activation; MEF A1-2A-BIM cells, Caspase-Glo 3/7 luminescence, 3 h; percent of clofoctol response, vehicle zero; caspase activation, % (test concentration not listed); actives 0.066% (n = 330,000);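 active = over half of replicate activation scores above 10%, or exactly half above 10 with the replicate mean above 10; inconclusive = replicate mean below 10 yet half the replicates above 10; inactive = over half of replicates below 10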;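 also: wells of about 30 µL received 50 nL stock; many hits fall short of the cut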
# Vif TR-FRET – inhibitors of Vif binding to APOBEC3G peptide, primary screen, biochemical, TR-FRET, GST-Vif 1-94, biotin-A3G peptide, dose response retest (AID 1117319); inhibition, %, or IC50 in µM where a hit was titrated; TR-FRET GST-Vif / biotin-A3G peptide binding; higher % means a stronger effect; test concentration not given here; strong numbers were not always called active; actives 0.57% (n = 260,000);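 active = above the screen mean plus three standard deviations and confirmed in dose response; inconclusive = results disagree or hit not tested in dose response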;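 also: Vif residues 1-94 fused to GST binding biotinylated APOBEC3G peptide 110-148; 0% = full assay without inhibitor and 100% = GST in place of GST-Vif; retest series ran down from 100 µM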
# rRNA inh HTS – selective bacterial rRNA inhibition in E. coli. E. coli WT GFP vs humanized-ribosome RFP mutants, fluorescence, 24 h; hits give low values; DMSO median 0, no signal -100. GFP signal change (wild-type ribosome), % (concentration not given with the values). actives 1.6% (n = 350,000). AID 720706;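 active = significant combined selectivity score with lowered wild-type GFP, culture density cut under 30%, mutant RFP and density less affected; inactive = any of these conditions unmet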; also: one replicate is shown; some compounds called inactive have numbers as strong as hits
# Calb FLC – C. albicans growth modulation with fluconazole | C. albicans CaCi-2 (fluconazole-resistant clinical isolate) + fluconazole, Alamar Blue growth, 48 h | growth inhibition, % (test concentration not listed) | actives 0.57% (n = 300,000) | AID 1979;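 active = most replicates above 75%; inconclusive = exactly half above 75%; inactive = most below 75%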;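 also: all wells also contain fluconazole at 8 µg/ml as a sub-toxic cotreatment; 0% = median of DMSO wells and 100% = median of geldanamycin control wells; wells of about 8 µL received 7.5 nL stock; the first replicate is given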
# AF4-AF9 inh – inhibitors of human MLL-AF4/AF9 interaction. inhibition, % at 10 µM. AlphaScreen, biotin-AF4 peptide binding to FLAG-AF9. actives 0.47% (n = 350,000). P42568;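 active = every replicate reaching a set inhibition limit, whatever the replicate mean, cut at about 25% in these data; inconclusive = mean inhibition reaches that limit but some replicates miss it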;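 also: 0% = plate neutral control median and 100% = total signal loss; the record names both 10 and 1 µM as test concentration; the first replicate is given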
# Target sequence (P42568 whole entry, looked up): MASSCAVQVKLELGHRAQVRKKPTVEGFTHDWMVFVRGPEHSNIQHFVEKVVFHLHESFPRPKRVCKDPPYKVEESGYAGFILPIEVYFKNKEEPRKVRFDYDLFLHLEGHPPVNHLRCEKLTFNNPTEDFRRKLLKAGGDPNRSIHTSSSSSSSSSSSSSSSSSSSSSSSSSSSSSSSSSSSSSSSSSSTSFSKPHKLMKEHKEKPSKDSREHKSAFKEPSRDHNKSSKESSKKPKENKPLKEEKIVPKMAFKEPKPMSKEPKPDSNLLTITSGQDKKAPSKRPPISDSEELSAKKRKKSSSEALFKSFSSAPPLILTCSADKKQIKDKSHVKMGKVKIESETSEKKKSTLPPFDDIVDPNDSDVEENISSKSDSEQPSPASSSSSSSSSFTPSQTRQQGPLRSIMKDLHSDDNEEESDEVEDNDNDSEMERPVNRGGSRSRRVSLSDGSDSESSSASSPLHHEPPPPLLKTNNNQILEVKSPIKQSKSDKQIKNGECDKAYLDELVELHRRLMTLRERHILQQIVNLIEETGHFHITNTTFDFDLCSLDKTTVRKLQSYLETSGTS
# rRNA inh HTS OD600 – further read-out of rRNA inh HTS, marked with its call; OD600 change, %; measured here: OD600 growth;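 optical density of the mix in the first replicate; 0 = DMSO median and -100 = no signal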
# rRNA inh HTS RFP – second read-out of rRNA inh HTS, no call of its own (marks repeat the call); RFP signal change, %; measured here: RFP humanized mutant strains;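 first replicate; 0 = DMSO median and -100 = no signal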
# The depositor's hits bear a star; ? = inconclusive; nt = not tested or not shown. These rows are one share of the data; count on the stated rates, not on these rows.
No.	Structure	T cruzi inh	RanGTP-Impb inh	Beta cell apopt	Bfl-1 A1 inh	Vif TR-FRET	rRNA inh HTS	rRNA inh HTS OD600	rRNA inh HTS RFP	Calb FLC	AF4-AF9 inh
1	NNC(=O)CS(=O)(=O)CS(=O)(=O)CC(=O)NN	-10	-0.9	-4	-0.3	-4%	11	10	-2.5	0	-4.9
2	CCn1cc(C(=O)NC(=S)Nc2ccccc2[N+](=O)[O-])cn1	-12	4.7	nt	1.9	3%	0	7	-1.6	26	-0.9
3	CCSc1ccc([C@@H]2[C@H]3C(=O)N(C)C(=O)[C@H]3[C@]3(C(=O)OC)CCCCN23)cc1	nt	nt	-9	0.7	nt	6	-22	36	nt	-0.8
4	CNC(=O)CNC(=O)Nc1ccc(C)cc1	-5	5.5	-7	-0.2	nt	19	13	1.4	2	-1.2
5	Cc1cc(=O)[nH]c(N2CCN(c3ccc(Cl)cc3)CC2)n1	3	1.5	-3	-0.3	2%	7	4	-3.2	-1	-5.5
6	COc1cc(SC)ccc1C(=O)Nc1cccc(C2OCCCO2)c1	5	4.5	-8	2.6	-5%	nt	nt	nt	10	2.3
7	CC(C)C(NS(=O)(=O)c1ccccc1)C(=O)NC1CCCC1 (centres undefined)	-23	4.4	-7	?	nt	4	6	-3.0	-1	-0.5
8	Cc1cccc(C)c1NC(=O)CSc1nnc(C)n1CC1CCCO1 (centres undefined)	5	1.3	7	0.0	-2%	6	0	0.8	-19	-0.5
9	O=C(c1ccc(F)cc1)N(c1ccccn1)C1CCCCC1	-1	-4.1	0	0.1	5%	9	4	1.1	16	-1.2
10	CC(C)=CC(=O)OCC(=O)Nc1cc(C)cc(C)c1	-3	1.6	0	1.0	-3%	17	11	-0.9	-35	-2.4
11	CC(C)=CCN1CCN(Cc2ccc(C)s2)CC1CCO (centres undefined)	-2	-0.1	-3	0.6	24%	16	12	1.9	1	1.5
12	Cc1cc(C)c(S(=O)(=O)NCCC2CCCN2C)c(C)c1 (centres undefined)	11	0.1	-4	0.6	12%	nt	nt	nt	-12	nt
13	COc1ccc(/C=C/C(=O)NCC(=O)N/N=C(\C)Cc2ccccc2)cc1	0	3.3	5	-0.9	23%	6	6	2.0	-1	nt
14	CN(C)c1ccc(CCc2ccc(N)cc2)cc1	41	-0.3	1	0.0	nt	-10	-15	-3.0	-33	1.7
15	O=C(/C=C/c1ccccc1)Nc1sc2c(c1C(=O)O)CCC2	-9	-0.4	-1	-0.7	18%	-54	-79	-30	17	nt
16	Cc1cc(C)c2c(NC(=O)CCl)nn(C)c2n1	6	-6.4	1	1.4	9%	nt	nt	nt	9	0.7
17	Cc1csc(NC(=O)CSc2sc3c(O)cc(=O)[nH]c3c2C#N)n1	-3	-2.4	-9	-0.6	nt	0	-2	0.1	1	-5.9
18	Cc1ccc(-n2c(C)cc(C(=O)CN3CCCCC3)c2C)cc1	26	-4.6	-1	-0.3	-3%	nt	nt	nt	16	5.0
19	O=[N+]([O-])c1cc([N+](=O)[O-])c(Oc2ccc(Br)cc2Br)cc1NN1CCCCC1	-13	1.2	3	0.4	nt	24	20	4.7	-11	-15
20	C/C(=N\Nc1nnc(-c2ccccc2)c(-c2ccccc2)n1)c1cccc([N+](=O)[O-])c1	20	4.4	0	0.0	-2%	nt	nt	nt	-6	nt
21	O=C(NCC(=O)N1CCCC1)c1ccccc1F	-13	1.2	0	0.1	?	3	11	0.1	-9	-2.1
22	NC(=S)N/N=C1\CC(c2ccc3c(c2)OCCO3)Oc2ccc(F)cc21 (centres undefined)	-2	-2.6	6	0.7	9%	-12	-10	2.0	-4	-8.6
23	COC(=O)CSc1ncc(OC)c(OC)n1	-12	3.3	2	0.7	8%	nt	nt	nt	-4	nt
24	CN(C)c1cc[n+](CC(=O)c2cccs2)cc1	-10	-1.7	4	0.3	nt	20	25	0.5	1	2.7
25	CCC(C)c1ccc(Nc2ncccc2C#N)cc1 (centres undefined)	3	6.2	5	0.0	0%	nt	nt	nt	-3	nt
26	Cc1ccc(NC(=O)COC(=O)Cn2nc(C)c([N+](=O)[O-])c2C)c([N+](=O)[O-])c1	-9	4.3	-5	-0.7	nt	15	8	2.0	-13	-2.8
27	Cc1ccc(-c2nn(-c3ccccc3)cc2/C=C/C(=O)Nc2nccs2)cc1	1	4.0	7	2.2	5%	nt	nt	nt	-3	nt
28	Cc1cc(C)nc(N2N=C(CSc3ccc(Cl)cc3)CC2=O)n1	-10	1.6	0	0.2	16%	10	6	32	24	-5.7
29	CN1C(=O)C2(OCCCO2)c2cc(Cl)ccc21	0	0.3	-3	-0.1	nt	6	9	-1.0	-2	-14
30	CCN(CC)S(=O)(=O)c1ccc(OC)c(NC(=O)C(C)Oc2ccc3c(C)cc(=O)oc3c2)c1 (centres undefined)	20	1.6	5	0.5	-3%	16	0	3.1	-4	-81
31	Cc1nonc1OC(C)CNCCNc1ccc([N+](=O)[O-])cc1 (centres undefined)	40	0.6	0	0.0	-6%	-3	-6	-1.7	-4	5.3
32	O=C(Cn1cc2c(n1)CCCC2)Nc1ccccc1Br	13	-2.6	-1	0.8	0%	-6	-13	-1.1	13	-0.4
33	Cn1cnc([N+](=O)[O-])c1NCc1ccccc1	-13	6.7	1	-0.3	4%	4	6	-0.5	-8	3.4
34	CCN(CC)S(=O)(=O)c1ccc(N2CCN(S(=O)(=O)c3ccccc3)CC2)nc1	1	1.8	nt	nt	nt	-1	2	-3.0	-12	0.6
35	Cc1cc2c(NC(=O)Nc3ccccc3)cccc2nn1	-13	-2.9	4	-0.7	nt	-5	7	62	-4	nt
36	CCn1cc(/C=C/C(=O)Nc2c(C)nn(Cc3ccccc3)c2C)cn1	3	-3.8	-9	-0.2	8%	nt	nt	nt	0	nt
37	CCOCCCNC(=O)Cc1c(C(=O)O)[nH]c2ccc(Cl)cc12	-8	?	1	0.0	-3%	9	9	-0.5	1	8.5
38	CCOc1ccccc1NC(=O)CSc1n[nH]c(=O)n1-c1ccccc1	1	-3.9	0	-0.1	-12%	-2	-1	-1.8	-6	-2.1
39	COc1ccc([N+](=O)[O-])cc1NC(=O)CC(c1ccccc1)c1ccccc1	19	1.7	12	-0.3	29%	6	2	-1.9	-5	-1.8
40	O=Nc1c(-c2ccccc2)[nH]n(-c2ccccc2)c1=O	27	11	-16	0.1	nt	3	7	-2.6	3	4.0
41	COc1cccc(N2CCN(C(=O)C3CCC(=O)N(C4CCCCCC4)C3)CC2)c1 (centres undefined)	8	5.9	-7	-0.4	12%	1	-23	3.6	16	0.8
42	Cc1cccc(C)c1NC(=O)CSc1nnnn1-c1ccc(C(=O)O)cc1	-5	1.7	-2	1.1	-1%	nt	nt	nt	1	nt
43	COc1ccccc1NC(=O)CSc1nc(O)cc(=O)n1C	-4	6.1	-2	1.4	-2%	nt	nt	nt	-15	nt
44	COc1ccc(-c2cc3ccc(F)cc3cn2)cc1	nt	nt	-2	-4.7	nt	13	25	1.7	nt	-4.6
45	COCCNC(=O)CN1C(=O)NC2(CCCc3cc(OC)ccc32)C1=O (centres undefined)	-8	-0.4	6	0.3	-5%	1	8	-1.3	-5	-1.7
46	Cc1nn(C)cc1/C=C/C(=O)c1ccc(O)cc1	-4	5.3	-1	-0.9	-5%	nt	nt	nt	-16	nt
47	Cc1ccc(CSc2nnc(CCCCCNC(=O)OC(C)(C)C)o2)cc1	21	1.4	-2	0.1	0%	-34	-41	-0.9	4	nt
48	CCC1(COC(NC(=O)c2cccnc2)(C(F)(F)F)C(F)(F)F)COC1	2	-2.1	-6	1.0	1%	nt	nt	nt	-4	nt
49	Cc1ccc(/C=C/C(=O)OCC(=O)Nc2ccc3[nH]c(=O)[nH]c3c2)o1	-13	3.4	-2	0.5	-3%	1	7	-2.8	-2	-3.3
50	Cc1cc(=O)oc2cc(OCC(=O)Nc3ccc4[nH]c(=O)[nH]c4c3)ccc12	-7	-1.4	-11	0.2	nt	-9	-5	-1.9	nt	-1.1
51	COC(=O)c1ccc(N2CN=C(c3ccc(C)cc3)NC2=S)cc1	10	1.1	-2	0.6	-3%	-4	-3	-2.4	-13	0.2
52	Clc1ccc(CNCc2cccs2)c(Cl)c1	-4	4.2	0	-0.6	nt	nt	nt	nt	1	1.2
53	COc1ccc(-c2cc(C(=O)N/N=C(\C)c3ccco3)c3ccccc3n2)c(OC)c1	-3	-0.4	-10	1.2	nt	11	12	1.0	6	0.0
54	Cc1c(C(=O)NCc2ccc3c(c2)OCO3)oc2ccc(S(=O)(=O)N3CCCCCC3)cc12	55*	-2.8	nt	0.1	1%	nt	nt	nt	-4	nt
55	COc1cc2c(cc1NC(=O)COC(=O)CNC(=O)c1ccccc1)oc1ccccc12	-3	2.3	8	-0.4	0%	8	-6	1.2	35	2.7
56	O=C(NNC(=O)C1[C@H]2CCCC[C@@H]12)Nc1cccc2ccccc12 (some centres undefined)	-7	-3.6	-10	1.7	-6%	-25	-27	0.1	3	-0.9
57	COc1ccccc1N(C)S(=O)(=O)c1ccc(C(=O)NC(C)c2ccccc2)cc1 (centres undefined)	1	-0.4	3	1.1	-1%	-18*	-9.9*	5.5*	-2	1.9
58	CN(CC(=O)Nc1cccc(F)c1)C(=O)C1CSC2(C)CCC(=O)N12 (centres undefined)	-8	0.4	nt	0.2	2%	-1	1	-1.9	30	2.2
59	COc1cnc(-c2ccccn2)nc1Sc1ccc(F)cc1	-49	4.9	42	0.4	5%	-41	-61	-9.0	?	3.0
60	COc1ccc(C2SCCN2C(=S)Nc2ccc(F)cc2)cc1 (centres undefined)	-73	4.7	-3	0.2	nt	nt	nt	nt	1	1.6

# (cont.)
No.	Structure	T cruzi inh	RanGTP-Impb inh	Beta cell apopt	Bfl-1 A1 inh	Vif TR-FRET	rRNA inh HTS	rRNA inh HTS OD600	rRNA inh HTS RFP	Calb FLC	AF4-AF9 inh
61	CC1(C)CC(NS(=O)(=O)c2ccc(S(=O)(=O)N3CCOCC3)cc2)CCO1 (centres undefined)	-20	0.4	-2	0.3	-4%	nt	nt	nt	-23	nt
62	COCCN(CCOC)S(=O)(=O)c1ccc(C(=O)Nc2c(C)n(C)n(-c3ccccc3)c2=O)cc1	3	-1.8	1	0.1	-16%	7	2	-1.2	5	0.5
63	CCC(C)N(NC(C)=O)c1nc(Cl)nc(NC(C)(C)C)n1 (centres undefined)	2	-0.4	-9	0.3	7%	nt	nt	nt	5	nt
64	Cc1cc(C(=O)NNC(=O)Nc2ccc(Cl)cc2)no1	-7	-4.4	3	0.1	3%	nt	nt	nt	4	-0.9
65	c1ccc(OCc2nn3c(-c4cccnc4)nnc3s2)cc1	-24	-1.7	-4	-0.7	-1%	nt	nt	nt	-8	nt
